# Assay outcomes: PubChem BioAssay, several laboratories
# BJeLR lethal – kills HRASV12-expressing BJeLR cells. BJeLR (HRASV12) viability, CellTiter-Glo ATP luminescence, 48 h; reference of the scale not given here. inhibition, % (concentration not given with the values). 300,000 tested, 0.17% active;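 active = replicate mean above 50%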;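 also: 50 nL library stock added to about 25 µL; numbers are from one replicate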
# PrP 5UTR inh – inhibition of PrP 5' UTR reporter expression; cell-based PrP 5' UTR mRNA reporter, plate reader; inhibition, % (test concentration not listed); 340,000 tested, 0.35% active; AID 488862;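 active = every replicate at 50% or more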;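 also: 0 = median of the neutral control wells; tested in H4 reporter cells; numbers are from one replicate; inactives centre near -14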
# RN4220 kill – kills Staphylococcus aureus RN4220; 330,000 tested, 0.33% active; AID 1259311; inhibition, % (concentration not given with the values); S. aureus RN4220 growth, OD600, 16 h;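 active = z-score of -3 or lower and OD600 up to 0.18 on both plates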;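 also: plate controls were untreated cells for no effect and reference antibiotic for full effect; stock transfer was 100 nL into about 80 µL; one replicate is shown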
# Mtb hypoxia inh – Mtb hypoxia fluorescent reporter inhibition | M. tuberculosis hypoxia-regulated fluorescent reporter, fluorescence | fluorescence inhibition, % (test concentration not listed) | 300,000 tested, 0.1% active | AID 1159583;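 active = 35 to 45% if threefold the growth effect, above 45% if 1.5-fold the growth effect; inactive = the rest, general growth blockers included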;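 also: wells of about 50 µL received 100 nL stock; 0% = vehicle wells and 100% = reference inhibitor wells; whole bacteria with a GFP reporter of the hypoxia response; strong numbers were not always called active; many hits fall short of the cut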
# Autofluor counter – compound fluorescence in toxin protease inhibitor counterscreen | compound autofluorescence counterscreen, microsphere flow cytometry; hits give high values | fluorescence intensity (concentration not given with the values) | 360,000 tested, 3.1% active | AID 624483;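 active = at least 3 SD above the mean of all compounds, about 16000 in these data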;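 also: 100 nL of 1 mM stock went into each well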
# Sa ugtP lethal – compounds lethal to S. aureus RN4220 ugtP deletion mutant; OD600 growth, 16 h; some inactives read as strong as hits; growth inhibition, % (concentration not given with the values); 330,000 tested, 0.54% active;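 active = z-score under -3 and OD600 up to 0.15 on both plates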;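 also: plate controls were untreated wells for no effect and antibiotic for full effect; wells of about 80 µL received 100 nL stock; the first replicate is given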
# Mtb hypoxia inh growth – further read-out of Mtb hypoxia inh, marked with its call; growth inhibition, %; measured here: M. tuberculosis growth (absorbance);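 0% = vehicle and 100% = reference antibiotic; read after six days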
# The depositor's hits bear a star; . = no result given; & = joins results of further samples.
SMILES,BJeLR lethal,PrP 5UTR inh,RN4220 kill,Mtb hypoxia inh,Mtb hypoxia inh growth,Autofluor counter,Sa ugtP lethal
Cc1ccc(-c2n[nH]c(=O)c3ccccc23)cc1S(=O)(=O)Nc1ccc(F)cc1,2,-21,0.1,6,-12,4184,6
Cc1ccc(C(=O)Nc2ccccc2N2CCCC2)cc1S(=O)(=O)N1CCOCC1,.,-8,4.0,9,12,3819,5
CCCn1c(N)c(N(CCOC)C(=O)c2ccccc2F)c(=O)[nH]c1=O,-1,-20,4.8,9,8,3571,17
CCn1c(C)nc2cc(C(=O)NNC(=O)CCC3CCCC3)ccc21,-15,-15,4.6,7,7,2051,2
Cc1nc(SCC(=O)Nc2ccc(F)cc2)c(C#N)c(C)c1CC(=O)c1ccc(Br)cc1,-12,-14,34,2,4,3653,11
CC(C)(C)N(Cc1ccccc1)C(=O)CN1C(=O)NC2(CCCCCC2)C1=O,.,-13,1.2,5,3,3934,-1
COC(=O)C1=C(c2cc3ccccc3o2)CC2CCC1N2C(=O)NCCNC(C)=O (stereo not given),.,.,2.5,-1,3,.,2
NC(=O)C1CCN(CC(=O)c2c[nH]c3ccc(F)cc23)CC1,-22,-17,2.8,5,4,11062,3
Cn1c(C(C#N)C(=O)Cc2cccc3ccccc23)nc2ccccc21 (stereo not given),20,11,1.9,7,1,2422,-12
O=C(NCCc1cccs1)c1ccc(Cl)c(Cl)c1,3,-52,2.8,7,2,3865,-4
CCOC(=O)c1ccccc1NC(=O)c1ccc2nc[nH]c2c1,0,-5,1.5,2,-6,3021,1
O=C(/C=C/c1ccccc1)NC(=O)c1ccccc1O,3,-15,5.0,1,-1,4628,11
CCOc1ccc(NC(=O)c2cccc(NC(C)=O)c2)cc1S(=O)(=O)N1CCCC1,.,-5,1.8,4,6,5282,2
COc1ccc(S(=O)(=O)NC(CC(=O)NCc2ccco2)C(C)C)cc1 (stereo not given),-8,-24,-5.7,.,.,2724,-2
O=C(NCCc1c[nH]c2ccccc12)/C(=C\c1cccnc1)NC(=O)c1ccccc1F,14,-22,2.7,2,10,5968,9
Cc1cc(=O)[nH]c(SCC(=O)N(CCC#N)c2ccccc2)c1C#N,.,-17,3.1,-5,1,4039,-11
C=CCN1C(=O)c2ccc(C(=O)N(C)CC(=O)Nc3ccccc3Br)cc2C1=O,8,-9,3.5,10,-4,5804,3
Cc1ccc(S(=O)(=O)N2CCCC2)cc1[N+](=O)[O-],-1,-4,7.8,3,2,2157,-3
O=C(Cc1cccs1)Nc1nc(-c2ccc(F)c(F)c2)cs1,-6,-22,-9.5,2,4,3305,55
FC(F)(F)c1cccc(N2CCN(C(=S)NCC3CCCO3)CC2)c1 (stereo not given),2,-9,1.7,9,19,3994,2
CCN(CC)S(=O)(=O)c1ccc2c3c(cccc13)C(=O)N2,-13,-8,8.0,8,6,6024,6
Cc1ccc(N(CC(=O)O)S(C)(=O)=O)cc1Cl,6,-15,-1.3,.,.,3744,4
N#CN(CC(N)=O)c1nc(N2CCCCC2)nc(N2CCCCC2)n1,-1,-23,-0.9,.,.,4746,2
Cc1ccc(C(CNS(=O)(=O)c2ccc(F)cc2)N2CCN(C)CC2)cc1 (stereo not given),-2,-14,1.7,-2,-5,.,9
CCC1(CC)C(=O)C2=C3C(CC(C(=O)OC)CC(C(=O)OC)C31)n1c(=O)n(-c3ccccc3)c(=O)n1C2C (stereo not given),.,.,8.9,10,6,.,9
O=C(C1CCC(=O)N1C1CCCCC1)N1CCN(c2ccc(F)cc2)CC1 (stereo not given),-7,-23,2.4,-1,-4,7232,5
CSc1ccc(CNCCCSc2ncccn2)cc1,5,0,3.6,10,8,8598,0
CCOc1ccc(CNC(=O)CCc2cn(C)c3ccccc23)cc1,-1,-5,2.0,5,0,3663,16
Cc1ccc(C(=O)NNC(=O)COC(=O)COc2ccccc2C#N)cc1,.,-40,4.4,8,11,3716,5
c1ccc(-c2nnc(SCc3nc4ccccc4[nH]3)n2Cc2ccco2)nc1,-8,-37,5.6,-1,4,9693,6
COc1ccc(C(=O)NCC(=O)N2CCC3(CC2)NCCc2[nH]cnc23)cc1,0,-5,-3.6,-3,-14,4467,-5
CCOC(=O)c1sc(NC(=O)CCN2C(=O)c3cccc([N+](=O)[O-])c3C2=O)c(C(=O)OCC)c1C,-15,1,2.1,-6,1,7480,-1
C/C=C/C=C\C(=O)Nc1cccc(C2=NOC3(C2)C[C@@H](C(N)=O)N(C(=O)/C(C)=C/C)C3)c1 (stereo not given in full),-6,-16,.,.,.,4179,.
CCOC(=O)c1sc(NC(=O)CSc2ccccn2)c(C#N)c1C,-7,-13,3.7,-13,-11,9759,3
Fc1ccc(-n2c(-c3cccs3)nc3nc4ccccc4nc32)cc1,-8,-27,10,8,-2,2658,-3
O=C(Cc1coc(-c2ccc(F)cc2)n1)Nc1ccccc1,.,-6,4.5,5,1,2473,9
Cc1nc(N)sc1C(=O)NN=Cc1c[nH]c2ccccc12,.,.,5.4,9,6,.,6
CCOc1[nH]n(-c2ccccc2)c(=O)c1C=Nc1ccc(C)cc1,-17,-15,5.6,1,-6,2475,8
COC(=O)c1ccc(NC(=O)C(=O)c2cccn2C)cc1,18,-41,1.5,6,11,4243,1
COc1cc(C(C)=O)ccc1OCc1cc(C(=O)N2CCSCC2)no1,3,-16,0.4,9,4,7994,-4

# Six successive compounds already listed, quoted:
SMILES,BJeLR lethal,PrP 5UTR inh,RN4220 kill,Mtb hypoxia inh,Mtb hypoxia inh growth,Autofluor counter,Sa ugtP lethal
C/C=C/C=C\C(=O)Nc1cccc(C2=NOC3(C2)C[C@@H](C(N)=O)N(C(=O)/C(C)=C/C)C3)c1 (stereo not given in full),-6,-16,.,.,.,4179,.
CCOC(=O)c1sc(NC(=O)CSc2ccccn2)c(C#N)c1C,-7,-13,3.7,-13,-11,9759,3
Fc1ccc(-n2c(-c3cccs3)nc3nc4ccccc4nc32)cc1,-8,-27,10,8,-2,2658,-3
O=C(Cc1coc(-c2ccc(F)cc2)n1)Nc1ccccc1,.,-6,4.5,5,1,2473,9
Cc1nc(N)sc1C(=O)NN=Cc1c[nH]c2ccccc12,.,.,5.4,9,6,.,6
CCOc1[nH]n(-c2ccccc2)c(=O)c1C=Nc1ccc(C)cc1,-17,-15,5.6,1,-6,2475,8

# Further compounds follow.
SMILES,BJeLR lethal,PrP 5UTR inh,RN4220 kill,Mtb hypoxia inh,Mtb hypoxia inh growth,Autofluor counter,Sa ugtP lethal
COc1ccccc1N(CC(=O)NCCSCc1ccc(Cl)cc1)S(C)(=O)=O,-3,4,2.5,-9,11,3840,3
O=C(Cc1ccc(Cl)cc1)Nc1ccc(N2CCN(C(=O)c3ccco3)CC2)c(Cl)c1,7,-4,-0.6,13,15,2362,-10
COc1ccc(S(=O)(=O)NCc2ccc(C)cc2)cc1,-13,-8,6.0,3,12,5993,1
COc1ccc(NC(=O)CCC(=O)c2ccc(-c3ccccc3)cc2)cc1,-9,-8,4.3,8,8,4264,2
O=C(NCCc1ccccc1)/C(=C/c1ccco1)c1ccccc1,3,-9,4.7,3,3,2566,-8
Cc1ccc(S(=O)(=O)N2CCCC(C(=O)NNCC(=O)Nc3cc(F)ccc3F)C2)cc1 (stereo not given),-1,-9,-2.0,2,-4,4509,-7
CC1(C)Cc2c(sc3nc(NN=Cc4ccccc4)[nH]c(=O)c23)CO1,.,.,0.5,2,-1,.,2
CC(C)(C)C1CCc2c(sc(NC(=O)c3ccco3)c2C(N)=O)C1 (stereo not given),.,-51,-0.6,.,.,4101,4
O=C(NCCc1ccccc1)C(=O)NCC1OCCN1S(=O)(=O)c1ccc([N+](=O)[O-])cc1 (stereo not given),3,-21,12,6,2,2355,-1
CCOc1ccc(-c2c(C(=O)NN=CC3CCCCC3)nnn2-c2nonc2N)cc1,.,.,5.1,10,4,.,7
CCCOc1ccc(C(=O)Nc2ccc(NC(=O)c3cccs3)cc2)cc1,-2,-19,4.6,-4,-6,5223,-2
COc1cccc(C(=O)N2CCC(C(=O)N3CCN(C)CC3)CC2)c1,-4,9,2.0,2,-5,5850,4
O=C(Nc1ccccc1)c1ccccc1NC(=O)c1ccccc1C(=O)O,7,.,-0.2,2,-7,5973,2
COC(=O)c1ccc(Cl)c(NC(=O)c2cccc([N+](=O)[O-])c2C)c1,0,-23,16,2,2,4380,11
Cc1ccc(C)c(NC(=S)NN=CC(C)c2ccccc2)c1 (stereo not given),.,.,1.1,-5,3,.,11
COc1ccc(CCN(Cc2cccs2)S(=O)(=O)c2ccc(S(=O)(=O)N3CCC(C)CC3)cc2)cc1OC,-16,-20,5.1,0,-1,2146,6
COc1cc(OC)c2c(c1)C(=O)OC2,-2,-25,-0.7,1,1,10977,1
CCC(C)NC(=O)c1ccccc1SC (stereo not given),13,-4,-2.4,-3,6,4500,2
CCCOc1cccc(C(=O)NC(=S)Nc2cccc(NC(=O)c3ccccc3Cl)c2)c1,4,-17,2.9,0,10,2054,-8
CC(OC(=O)Cc1coc2cc3c(cc12)CCC3)C(=O)NCc1ccc2c(c1)OCO2 (stereo not given),-2,-16,3.8,.,.,4724,20
CCOC(=O)c1ccc(NC(=O)c2nc[nH]c2C(=O)N[C@H](C)c2ccccc2)cc1,0,2,.,.,.,3028,.
CC(=NNc1ncc(Br)cn1)c1ccc(Br)cc1,.,.,1.0,4,10,.,3
COc1cc(C(=O)Nc2ccc(C(=O)O)cc2)ccc1OC(C)=O,8,-22,-0.5,1,3,4623,-1
COc1cc(OC)cc(C(=O)NCC(=O)OCC(=O)NC2CCCc3ccccc32)c1 (stereo not given),.,-12,1.2,6,6,3644,-1
CC(C)Cc1ccc(C(C)NC(=O)Cc2ccc(S(=O)(=O)N3CCOCC3)s2)cc1 (stereo not given),9,-6,2.8,5,6,6033,9
Cc1ccc(NC(=O)COc2cccc(-n3cnnn3)c2)cc1[N+](=O)[O-],2,-9,1.0,10,5,3393,-4
Cc1ccccc1-n1c(SCC(=O)Nc2cccc3ccccc23)nc(O)cc1=O,-3,-19,-2.7,4,0,4230,8
CC(=O)NC(NC(C)=O)c1ccc(Br)cc1,-8,-5,2.1,5,3,7630,7
O=[N+]([O-])c1cc(S(=O)(=O)C(F)(F)F)ccc1Sc1nc2ccccc2[nH]1,8,-4,2.3,.,.,2390,10
CCn1c(SCC(=O)Nc2cccc(OC)c2)nnc1-c1ccc(Cl)cc1,-14,-4,-3.3,1,-1,21821*,7
Cc1ccc(NC(=O)CN(C)C(=O)CCC(=O)c2cccs2)cc1,-5,-3,0.9,-3,-1,2125,-13
CC1=CC(C2CC(=O)N(c3ccc(C)cc3)C2=O)CC2C(=O)N(c3ccc(C)cc3)C(=O)C12 (stereo not given),4,15,3.5,8,5,4480,6
Cc1ccc(NCc2nnc3n2CCCCC3)cc1,-2,-14,7.8,3,2,6941,13
CC12CN(C(=O)c3cccc([N+](=O)[O-])c3)C3(C#N)CC1CCC23C (stereo not given),-5,-4,1.9,0,0,3701,3
CC(C)(C)NCC(O)COc1cccc2c1CCCC2=O (stereo not given),.,.,2.1&2.6,11&13,4&4,.,4&2
Clc1cccc(N2CCN(CCNc3nc4ccccc4n4cnnc34)CC2)c1,-7,-18,4.3,0,5,10687,-7
Cc1ccccc1OCC(=O)NNC(=O)CN1C(=O)c2ccccc2C1=O,-4,-12,1.1,9,-3,2476,1
Cc1cc(C(=O)COc2cccnc2[N+](=O)[O-])c(C)n1Cc1ccco1,5,-11,3.2,8,-8,3398,6
O=C(COc1ccc(S(=O)(=O)NCc2ccccc2)cc1)NCC1CCCO1 (stereo not given),5,-3,1.6,2,5,2320,2
COC/C=C/C1=CC2=CC(=O)C(C)(OC(=O)c3cnc4ccccc4n3)C(=O)C2=CN1CCOC (stereo not given),3,6,.,.,.,3982,.
COC(CNC(=O)C1CCCCC1C(=O)O)OC (stereo not given),-4,-6,2.7,-2,-7,2107,-1
Cc1oc(-c2ccccc2)cc1C(=O)Nc1cccc2ccccc12,-2,-15,-8.6,.,.,4615,25
O=C(Nc1ccc(N2CCN(C(=O)c3ccccc3)CC2)cc1)c1cccnc1,12,-2,6.3,-4,0,3011,12
CCOc1ccc2ccccc2c1/C=N/NC(=O)CNC(=O)c1ccccc1O,0,-12,.,.,.,4481,.
O=C(CCCN1C(=O)c2ccccc2C1=O)Nc1cccnc1,-8,9,5.1,9,3,8753,13
